ALR inh: blocks human ALR sulfhydryl oxidase activity. P55789. purified ALR, DTT oxidation, H2O2 HRP-luminol luminescence. inhibition, % (concentration not given with the values). 290,000 tested, 3.8% active. AID 485317;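 active means mean and each replicate at 75% or more; inconclusive means only one of the two met; inactive means neither met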;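 further: stock transfer was 7.5 nL into about 7.5 µL; 0% = neutral wells and 100% = wells with inactivated enzyme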
Target sequence (P55789 whole entry, looked up): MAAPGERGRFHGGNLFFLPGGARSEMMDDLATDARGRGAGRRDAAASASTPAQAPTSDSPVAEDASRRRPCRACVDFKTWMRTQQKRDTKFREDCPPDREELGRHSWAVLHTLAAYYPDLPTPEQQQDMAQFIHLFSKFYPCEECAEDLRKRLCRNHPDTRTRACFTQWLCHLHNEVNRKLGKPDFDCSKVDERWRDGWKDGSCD
Ecoli rRNA inh: inhibitors of bacterial rRNA selective over humanized ribosomes | E. coli WT GFP vs humanized-ribosome RFP mutants, fluorescence, 24 h; active compounds read low; DMSO median 0, no signal -100 | AID 720706 | 350,000 tested, 1.6% active | GFP signal change (wild-type ribosome), % (concentration not given with the values);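 active means significant combined selectivity score with lowered wild-type GFP, culture density cut under 30%, mutant RFP and density less affected; inactive means any of these conditions unmet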; further: one replicate is shown; some compounds called inactive have numbers as strong as hits
Beta apoptosis: beta cell apoptosis inhibition; 300,000 tested, 0.8% active; protection from apoptosis, % (concentration not given with the values); AID 435005; INS-1E cytokine-induced death, ATP luminescence, 48 h; percent of positive-control rescue, neutral wells zero;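 active means all replicates at 75% or more, or half of them and the mean; inconclusive means half reach 75% but not the mean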;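 further: 0% = cytokine-treated negative control wells and 100% = positive control rescue; higher means more ATP so stronger rescue from cytokine killing; wells of about 40 µL received 100 nL stock; the first replicate is given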
Calb FLC: C. albicans growth modulation with fluconazole | 300,000 tested, 0.57% active | growth inhibition, % (test concentration not listed) | C. albicans CaCi-2 (fluconazole-resistant clinical isolate) + fluconazole, Alamar Blue growth, 48 h;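 active means most replicates above 75%; inconclusive means exactly half above 75%; inactive means most below 75%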;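 further: all wells also contain fluconazole at 8 µg/ml as a sub-toxic cotreatment; 0% = median of DMSO wells and 100% = median of geldanamycin control wells; wells of about 8 µL received 7.5 nL stock; the first replicate is given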
B2AR ag: activates human beta-2 adrenergic receptor causing internalization; 340,000 tested, 0.43% active; Am2.2-beta2AR cells, FAP receptor internalization, flow cytometry; reference of the scale not given here; P07550; AID 504454; response, % (concentration not given with the values);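 active means response above a set limit, near 3 SD of response in nonfluorescent compounds, cut at about 42% in these data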;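 further: stock transfer was 100 nL into about 11 µL; a reference agonist was the positive control; negative values mostly stem from fluorescent compounds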
Target sequence (P07550 whole entry, looked up): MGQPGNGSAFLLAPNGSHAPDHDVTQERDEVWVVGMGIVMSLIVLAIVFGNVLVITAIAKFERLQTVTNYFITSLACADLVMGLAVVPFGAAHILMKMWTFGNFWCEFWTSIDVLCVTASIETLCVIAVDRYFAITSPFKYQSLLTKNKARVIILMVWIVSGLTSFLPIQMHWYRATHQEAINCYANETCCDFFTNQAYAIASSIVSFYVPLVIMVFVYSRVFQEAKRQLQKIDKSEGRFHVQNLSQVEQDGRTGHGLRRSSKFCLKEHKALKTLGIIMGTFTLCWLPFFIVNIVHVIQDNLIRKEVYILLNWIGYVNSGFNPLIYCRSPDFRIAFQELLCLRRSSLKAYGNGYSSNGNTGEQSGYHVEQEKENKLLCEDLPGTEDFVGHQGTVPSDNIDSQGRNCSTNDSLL
Bfl-1 A1 inh: inhibitors of the anti-apoptotic protein A1, read as caspase activation; MEF A1-2A-BIM cells, Caspase-Glo 3/7 luminescence, 3 h; percent of clofoctol response, vehicle zero; caspase activation, % (no concentration beside the values); 330,000 tested, 0.066% active;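 active means over half of replicate activation scores above 10%, or exactly half above 10 with the replicate mean above 10; inconclusive means replicate mean below 10 yet half the replicates above 10; inactive means over half of replicates below 10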;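 further: wells of about 30 µL received 50 nL stock; many hits fall short of the cut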
LANA-H2A inh: blocks KSHV LANA binding to histone H2A/H2B; cell-free LANA-H2A/H2B peptide, fluorescence polarization; inhibition, % (concentration not given with the values); 320,000 tested, 0.6% active; AID 2629; in the data active means inhibition mostly above about 10%, no sharp cut-off; inactive means mostly below about 6.7%;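 further: stock transfer was 7.5 nL into about 10 µL; 0% = median of vehicle wells and 100% = median of positive control wells; one replicate is shown; the record names a cut of 25% in any replicate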
T cruzi repl: blocks replication of Trypanosoma cruzi. T. cruzi beta-gal in NIH3T3, luminescence, 90 h. inhibition, % (concentration not given with the values). 300,000 tested, 1.4% active. AID 1885;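 active means mean inhibition across valid replicates above about 55%, limit read from the data; inconclusive means mean below that limit but half or more replicates reach it; inactive means mean below it, under half of replicates reach it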;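 further: signal also drops with host cell toxicity which is not excluded here; 0% = plate median of DMSO wells and 100% = zero luminescence signal; higher percent means less beta-gal luminescence so fewer parasites; stock transfer was 50 nL into about 50 µL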
Ecoli rRNA inh OD600: second read-out of Ecoli rRNA inh, no call of its own (marks repeat the call); OD600 change, %; measured here: OD600 growth;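 optical density of the mix in the first replicate; 0 = DMSO median and -100 = no signal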
Ecoli rRNA inh RFP: also measured in Ecoli rRNA inh; calls as there; RFP signal change, %; measured here: RFP humanized mutant strains;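 first replicate; 0 = DMSO median and -100 = no signal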
Starred values were filed as active, the others as inactive; ? = inconclusive; / = no result given. This is a subset; rates above refer to the full screens.

Results follow in this order: Ecoli rRNA inh OD600	ALR inh	LANA-H2A inh	Beta apoptosis	Ecoli rRNA inh	Ecoli rRNA inh RFP	Bfl-1 A1 inh	T cruzi repl	B2AR ag	Calb FLC
CCC(CC)NC(=O)c1cc([N+](=O)[O-])ccc1N1CCOCC1
→ /	-1	7.2	/	/	/	0.3	1	-6	-3
CCOC(=O)c1cc(-c2ccc(C)c([N+](=O)[O-])c2)nc2c1c(=O)n(C)c(=O)n2C
→ /	-16	-1.0	5	/	/	-0.2	18	/	9
COc1cccc(C(=O)Nc2cc3c(cc2C(C)=O)OCCO3)c1
→ 6	3	0.0	9	2	1.8	1.5	9	11	35
Cc1ccc(/C=C(\C#N)C(=O)NCC2CCCO2)o1 (stereo not drawn)
→ 4	-4	1.1	2	14	3.4	0.8	-3	1	24
COc1cccc(C2=NOC(C(=O)Nc3ccc(C(C)=O)cc3)C2)c1 (stereo not drawn)
→ /	-3	-2.5	-8	/	/	0.0	/	-11	15
O=C(NCC1CCCCC1)c1cccc(S(=O)(=O)N2CCCC2)c1
→ -6	-6	1.4	-5	0	-0.6	0.5	/	-14	/
COc1ccnc(NCc2cccnc2)c1C#N
→ 1	2	-1.1	-4	10	0.1	0.6	-2	-2	15
O=C(O)COCC(=O)N1CCN(C2c3ccccc3-c3ccccc32)CC1
→ -22	-5	2.2	0	-16	-2.5	1.4	3	-6	-1
CCNC(=S)NNC(=O)c1cc(C2CC2)nc2ccccc12
→ /	/	-1.7	8	/	/	-0.7	9	3	9
CC(C(=O)Nc1ccc(Cl)cc1)c1ncc(C(F)(F)F)cc1Cl (stereo not drawn)
→ 7	-3	-1.5	-3	9	-2.4	0.6	-4	-9	2
CCOC(=O)c1cn(-c2ccc([N+](=O)[O-])cc2)c2cc(Cl)c([N+](=O)[O-])cc2c1=O
→ /	0	0.9	-11	/	/	-0.7	-4	-28	3
NC(=O)c1ccc(NC(=O)CNCc2ccccc2Cl)cc1
→ -5	-1	0.3	-2	4	-1.9	-1.3	-1	-7	6
CCCCc1ccc(/C=C2/C(=O)ON=C2c2ccccc2)s1
→ /	/	1.5	-4	/	/	0.0	28	9	11
Nc1ccc(-c2n[nH]c(=O)c3ccccc23)cc1N
→ /	-7	-2.0	4	/	/	-0.7	7	-2	-4
Cc1ccccc1CNS(=O)(=O)c1ccccc1[N+](=O)[O-]
→ -22*	-7	3.9	0	-28*	-3.6*	2.9	-10	-10	12
CCOc1ccc(NC(=O)C(CC(=O)O)Cc2ccccc2)cc1 (stereo not drawn)
→ 1	-13	2.3	-1	4	-1.3	0.3	-14	6	-4
COc1ccc(/C=C/C(=O)NCC(=O)N=Nc2c(O)[nH]c3ccc([N+](=O)[O-])cc23)cc1
→ 7	/	7.8	-5	2	-1.2	1.0	11	-10	15
O=C(Cn1ncc2c([nH]c3ccccc32)c1=O)Nc1cccnc1
→ 5	3	2.4	5	3	1.6	0.4	-3	-5	-2
Cc1ccc2c(c1)C(=O)CC1(CCCC1)O2
→ 4	5	-0.4	-6	17	-3.8	-0.2	7	1	1
Cc1ccc(OCc2nnc(SCC(=O)Nc3nccs3)n2-c2ccccc2)cc1C
→ /	-12	-1.1	3	/	/	0.9	9	4	-13
O=C(CCN1C(=O)COc2ccccc21)NCCN1CCN(c2ccccc2F)CC1
→ 5	/	2.6	3	-5	-1.2	-0.7	-6	-1	3
Cc1ccc(C(=O)NC2CC(C)(C)NC(C)(C)C2)cc1C
→ /	99*	-0.7	0	/	/	-1.5	-8	-7	-3
CN(C)/C=N/c1cc(=O)[nH]c(=O)n1C
→ /	-7	-2.8	6	/	/	0.6	-11	-2	2
c1ccc(-c2cc3c(ccc4nonc43)nn2)cc1
→ /	-8	-2.0	5	/	/	-6.4	-1	-17	-46
O=C1Nc2ccccc2N(O)N1c1cc(-c2cccc(Cl)c2)no1
→ /	79*	3.5	-7	/	/	-6.4	5	-1	-6
COc1ccc(CN2C(=O)c3ccccc3C(/C=N/OCc3ccc(Cl)cc3)C2=O)cc1 (stereo not drawn)
→ /	2	-3.7	0	/	/	0.1	2	-1	0
Cc1cccc(NC(=O)c2cc([N+](=O)[O-])ccc2Cl)c1O
→ -4	/	-1.4	3	-3	1.1	0.3	-10	-6	18
CCOC(=O)N1CCN(C(=O)CN(C)S(=O)(=O)c2ccc3c(c2)C(C)(C)C(=O)N3C)CC1
→ /	-11	0.2	3	/	/	-0.1	-9	0	?
CCCCC(=O)N(c1ccc(C(=O)O)cc1)c1nc(-c2ccc(Cl)cc2)c(CC)s1
→ 15	0	-1.9	6	20	4.2	0.5	38	2	6
COC(=O)C(C)n1nc(C)n(-c2ccc(C)cc2)c1=O (stereo not drawn)
→ /	-7	2.8	-6	/	/	-0.2	-7	9	-1
Nc1nnc(-c2ccncc2)s1
→ /	-8	0.5	-6	/	/	0.6	0	6	6
CC(O)c1nc2ccccc2n1C(C)c1ccccc1 (stereo not drawn)
→ 6	/	2.1	-6	-2	-4.2	-0.2	-4	-5	7
Nc1ncnc2c1ncn2[C@@H]1O[C@H](CNCc2c(OCc3ccccc3F)ccc3ccccc23)[C@@H](O)[C@H]1O
→ -6	/	0.0	-2	-8	1.2	0.0	/	7	/
CCN(CC)S(=O)(=O)c1ccc(Cl)c(NC(=O)COC(=O)c2ccc(O)cc2)c1
→ 7	-6	-8.3	-7	4	0.9	0.2	6	7	0
CCOC(=O)C1CCCCN1S(=O)(=O)c1cc2c(cc1C)NC(=O)CO2 (stereo not drawn)
→ -11	/	/	/	-7	-1.0	/	0	-3	9
CCC(C)NC(=O)C(=O)NCC1CCCN1CC (stereo not drawn)
→ /	-26	2.9	-2	/	/	0.4	-24	2	1
O=[N+]([O-])c1cccc(-c2c(-c3ccccc3)ncc3ccc(F)cc23)c1
→ -16	9	-0.3	1	-7	-9.4	-4.0	/	3	/
Cc1ccccc1-n1c(SCC(=O)N(C)C2CCS(=O)(=O)C2)nnc1-c1ccncc1 (stereo not drawn)
→ 13	-1	-1.2	-9	11	-0.2	0.8	-13	3	-18
CCN=C1SC(C(=O)Nc2cccc(Br)c2)CC(=O)N1CC (stereo not drawn)
→ 7	-6	2.9	-4	-5	-0.4	0.2	-5	-11	?
O=C(NCCNC(=O)c1ccc(F)cc1)c1ccc(F)cc1
→ -4	-4	1.3	/	-8	-1.9	-1.0	-18	0	0
Cn1cc([N+](=O)[O-])c(C(=O)NCc2ccccc2)n1
→ 1	-8	-10.0	-3	15	1.0	0.2	-11	-1	1
N#C/C(=C\c1ccc(O)c(O)c1)C(=O)Nc1cccc2ncccc12
→ 13	99*	5.0	-4	-5	2.6	0.1	-5	16	97*
Cc1[nH]nc2c1/C(=N\O)CC(C)(C)C2
→ /	3	5.9	0	/	/	0.5	1	10	-10
CCOC(=O)C(=CNc1cccc(N)n1)C(=O)OCC
→ /	-37	3.4	-9	/	/	-0.3	28	-2	4
CCOC(=O)N1CCN(C(=O)CSc2nnc(-c3ccc(Cl)s3)o2)CC1
→ /	5	-5.2	-7	/	/	0.4	-5	/	8
CSc1nc(N)nc(C(C)C)n1
→ 13	-10	3.5	-2	18	2.9	-0.1	-11	2	-5
COc1ccc(C(=O)N/N=c2\oc3ccccc3cc2C(=O)NCc2ccccc2)cc1
→ /	1	4.3	3	/	/	-0.1	23	9	3
COc1ccccc1N1CCN(CCN2C(=O)C3CCCCN3C2=O)CC1 (stereo not drawn)
→ 17	44	2.0	-6	18	2.9	1.1	0	-1	-6
O=C(Nc1ccccc1)Nc1ccc2snnc2c1
→ /	59	-4.8	14	/	/	-5.0	-6	3	2
Cc1cccc(N2C(=O)SC(N(C)c3ccccc3)C2=O)c1 (stereo not drawn)
→ /	-4	2.6	-3	/	/	-0.5	1	2	-2
CCc1c(C)sc(NC(=O)c2cccs2)c1C(N)=O
→ /	9	0.1	-6	/	/	-1.6	-1	-10	4
NC1=NC(=O)/C(=C/C=C/c2cccs2)S1
→ -14	-3	3.2	-12	4	-2.4	-5.1	-16	-4	2
O=S(=O)(Nc1nc2ccccc2s1)c1cnc(Cl)c(Br)c1
→ -6	0	3.8	4	-5	-1.4	-0.5	10	7	53
C[C@H]1CN=C(Nc2ccccc2)N1CCC1CCCCC1
→ -4	-1	0.4	-1	2	-11	-0.1	15	5	-25
O=C(NCc1ccccc1Cl)NC(=O)c1ccccc1
→ 6	-3	-11	-2	16	0.3	-0.3	9	3	-9
Cc1c(/C=C/C(=O)c2ccccc2O)cnn1C
→ /	/	-14	-6	/	/	-3.7	-9	-3	1

Quoted from above, 2 compounds:
Results follow in this order: Ecoli rRNA inh OD600	ALR inh	LANA-H2A inh	Beta apoptosis	Ecoli rRNA inh	Ecoli rRNA inh RFP	Bfl-1 A1 inh	T cruzi repl	B2AR ag	Calb FLC
O=C(NCc1ccccc1Cl)NC(=O)c1ccccc1
→ 6	-3	-11	-2	16	0.3	-0.3	9	3	-9
Cc1c(/C=C/C(=O)c2ccccc2O)cnn1C
→ /	/	-14	-6	/	/	-3.7	-9	-3	1
